Bioassay records: PubChem, National Center for Advancing Translational Sciences (NCATS)
CtBP-E1A inh – inhibitors of CtBP/E1A interaction. activity change, % (test concentration not listed). AlphaScreen GST-E1A/His-CtBP binding, 1536-well; active compounds read low; control for the full effect not named in the record. actives 0.49% (n = 340,000); in the data active means activity change below about -65%; inconclusive means about -30% to -65%; inactive means above about -30%; note: % is set by controls: 0 for no effect and ±100 for the full control effect
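Homogeneous bead-based format: GST-tagged E1A captured on glutathione donor beads, His-tagged CtBP on nickel acceptor beads; compounds precede bead addition by 2 h at 37 °C.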
D2 PAM – positive allosteric modulators of human D2 dopamine receptor; actives 0.23% (n = 360,000); potentiation, % (test concentration not listed); DiscoveRx D2 beta-arrestin cells, luminescence, 90 min; 100% = 57 uM dopamine signal; active = potentiation of 50% or more; inconclusive = 30% to 50%; inactive = 30% or less;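 note: compound concentration not given in the record; tested on top of an EC20 dose of dopamine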
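PathHunter beta-arrestin assay in DiscoveRx D2 cells. Compounds were added with an EC20 of dopamine (50 nM final) for 90 min at 37 deg C. Luminescence was read 1 h after detection reagent, with 57 uM dopamine as the EC100 control.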
TRPML1 agonist – human mucolipin-1 channel agonism; TRPML1-expressing cells, Ca2+ dye fluorescence, FDSS; host cell line not named in the record; reference of the full effect not given here; Q9GZU1; actives 0.12% (n = 410,000); activation, % (concentration not given with the values); in the data active = activation above about 50%; inconclusive = about 30% to 50%; inactive = below about 30%; note: 0% is about no effect; the text of the record puts the active cut at 80%
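Cells: TRPML1-DL, 1X Tet inducer, ~16 h at 37 degrees C/5% CO2. Dye: ABD Ca8 no-wash + quencher, 45-90 min RT. Read: 10 s baseline, compound add, 110 s agonist phase; 54-4 EC80 (4uM final), 110 s antagonist phase.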
Six1-Eya2 blk – blocks human Six1 binding to Eya2 | activity change, % (concentration not given with the values) | AlphaScreen GST-Six1/His-Eya2 binding, biochemical; active compounds read low; control for the full effect not named in the record | Q15475+O00167 | actives 0.56% (n = 360,000) | AID 651725; in the data active = activity change below about -65%; inconclusive = about -30% to -65%; inactive = above about -30%; note: % is set by controls: 0 for no effect and ±100 for the full control effect
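Compounds are tested against tagged Six1 and Eya2 proteins bridged by glutathione donor and nickel acceptor beads; after a one-hour incubation at 37 °C without light, AlphaScreen emission is recorded.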
TRPML1 inh – blocks the human TRPML1 channel; TRPML1-inducible cells, Ca2+ dye fluorescence, FDSS; active compounds read low; inhibition of EC80 agonist-evoked calcium signal; AID 624415; activity change, negative = inhibition, % (concentration not given with the values); actives 0.02% (n = 390,000); Q9GZU1; in the data active means activity change below about -50%; inconclusive means about -30% to -50%; inactive means above about -30%;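 note: stimulus is agonist 54-4 at its EC80 concentration; % is set by controls: 0 for no effect and ±100 for the full control effect; the text of the record puts the active cut at -80%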
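Tet-induced TRPML1-DL cells loaded with Ca8 no-wash calcium dye were read kinetically on FDSS. Compound addition was followed by EC80 agonist 54-4 (4 uM final); inhibition was read over 110 s.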
TRPV1 PAM – human TRPV1 potentiation. TRPV1-expressing cells, Fluo-8 calcium influx, capsaicin EC20 potentiation; host cell line not named in the record; control for the full effect not named in the record. potentiation, % at 8.33 µM. actives 0.02% (n = 320,000). AID 540277; active means potentiation above 80%; inconclusive means 30% to 80%; inactive means below 30%; note: 0% is about no effect
Target sequence (Q8NER1 whole entry, looked up): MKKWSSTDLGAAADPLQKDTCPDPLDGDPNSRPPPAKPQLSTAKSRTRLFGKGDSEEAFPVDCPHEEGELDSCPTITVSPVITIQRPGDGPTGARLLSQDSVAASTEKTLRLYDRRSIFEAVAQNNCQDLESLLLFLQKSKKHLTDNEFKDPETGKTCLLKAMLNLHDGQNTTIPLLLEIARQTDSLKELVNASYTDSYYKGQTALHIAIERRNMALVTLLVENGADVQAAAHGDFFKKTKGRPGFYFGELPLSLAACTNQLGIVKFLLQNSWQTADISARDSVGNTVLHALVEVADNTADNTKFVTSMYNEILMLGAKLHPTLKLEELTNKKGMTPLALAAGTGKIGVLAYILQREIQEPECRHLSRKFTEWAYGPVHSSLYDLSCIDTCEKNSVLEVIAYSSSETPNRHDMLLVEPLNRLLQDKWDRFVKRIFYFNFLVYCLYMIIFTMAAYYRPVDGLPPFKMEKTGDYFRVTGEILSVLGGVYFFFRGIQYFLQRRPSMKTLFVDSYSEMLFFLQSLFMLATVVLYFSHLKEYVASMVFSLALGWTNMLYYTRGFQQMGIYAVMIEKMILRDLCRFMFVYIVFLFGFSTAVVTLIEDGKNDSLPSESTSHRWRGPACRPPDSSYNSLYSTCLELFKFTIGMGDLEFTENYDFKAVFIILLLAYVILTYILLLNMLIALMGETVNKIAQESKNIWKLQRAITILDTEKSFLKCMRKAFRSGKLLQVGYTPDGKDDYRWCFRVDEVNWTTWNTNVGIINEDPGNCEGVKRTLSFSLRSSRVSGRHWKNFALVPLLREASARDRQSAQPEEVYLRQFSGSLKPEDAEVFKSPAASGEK
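TRPV1-expressing cells were cultured overnight at 35.5C and loaded with Fluo-8 calcium dye for 40 to 90 min at room temperature. After a 10 s baseline, compound was added and calcium influx was read kinetically for 3 min (ex 480/em 520 nm).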
* = called active by the depositor; ? = inconclusive; / = not tested or not shown.

item | molecule | CtBP-E1A inh | D2 PAM | TRPML1 agonist | Six1-Eya2 blk | TRPML1 inh | TRPV1 PAM
1 | O=C(NC1CCCC1)c1ccc(CN2CCOCC2)cc1 | -0.3 | 0.1 | 1.2 | 3.9 | -3.3 | -7.3
2 | COc1cc(Cl)ccc1OCc1cc(C(=O)N2CCCCC2c2cccnc2)no1 (configuration not stated) | / | -4.1 | 1.6 | -3.9 | 1.8 | 0.2
3 | CC(C)C[C@H]1CN([C@@H](Cc2ccc(O)cc2)CN2CCC[C@H]2CN2C(=O)C(=O)NC[C@@H]2Cc2ccccc2)C(=O)C(=O)N1CC1CCCCC1 | -0.7 | / | -0.1 | -2.2 | / | /
4 | O=C(CCNC(=O)Cn1ccc2ccccc2c1=O)NCCN1CCN(c2ccccc2F)CC1 | 0.5 | -31.7 | -0.5 | -2.8 | 4.0 | /
5 | O=C(CSc1ccsc1[N+](=O)[O-])N1CCN(c2ccccn2)CC1 | 0.0 | -12.5 | 2.7 | -5.3 | -12.0 | 7.0
6 | Cc1ncn(C23CC4CC(CC(O)(C4)C2)C3)n1 | -0.1 | 0.7 | -0.6 | 12.2 | -3.0 | -1.2
7 | c1ccc2c(c1)[nH]c1c(N3CCC4(CC3)OCCO4)ncnc12 | -8.8 | 6.9 | 0.4 | 1.0 | 23.3 | -13.7
8 | CC(C)c1nnc(SCC(=O)NC2CCCC2)n1C | 7.0 | 2.5 | -0.1 | 0.8 | -2.5 | 17.0
9 | COC(=O)[C@]1(C)N[C@H](CN(C)C(=O)c2ccccc2)[C@@H]2C(=O)N(C)C(=O)[C@@H]21 | -17.0 | -3.3 | -0.3 | 2.8 | 8.0 | /
10 | COc1ccccc1-n1c(C)cc(SC)c(C(C)=O)c1=S | 3.4 | -11.6 | 0.5 | 5.1 | 5.2 | -6.7
11 | COc1ccc(CN(C)C(=O)c2cc(-c3ccc(C)cc3C)nc3ccccc23)c(OC)c1OC | -15.9 | 16.5 | 0.8 | -0.2 | 17.3 | -11.7
12 | COc1cccc(C(=O)N2CCN(Cc3nc(CC4CC4)no3)CC2)c1 | -0.9 | -7.8 | 0.4 | -8.1 | -4.8 | 14.0
13 | O=C(Nc1ccc(S(=O)(=O)Nc2ncccn2)cc1)c1cccc([N+](=O)[O-])c1 | 5.3 | -8.9 | 0.1 | 7.1 | -2.9 | /
14 | CC(OC(=O)c1cc(-c2cccnc2)nc2ccccc12)C(=O)Nc1ccc2ccccc2c1 (configuration not stated) | -24.2 | -9.3 | 0.8 | 0.0 | -4.6 | 12.1
15 | CN1CCN(NC(=O)c2ccc(COc3ccccc3Br)o2)CC1 | -0.4 | -12.0 | -0.2 | 0.5 | 13.6 | 6.8
16 | O=C(O)CCCn1nc(-c2ccccc2)c2ccccc21 | 3.3 | -4.7 | 0.1 | 3.0 | 13.5 | 4.3
17 | CCCC(N)CCCCCC(=O)O (configuration not stated) | -0.7 | -23.1 | 0.1 | 0.4 | 6.8 | 5.0
18 | CCn1c(=O)n(CC)c2cc(N3CCCC3)c(NC(=O)c3ccc(OC)c(Br)c3)cc21 | / | -0.3 | 1.8 | -5.1 | 28.9 | -1.9
19 | CN1CCN(C(=O)C2(NC(=O)Nc3cccc(F)c3)CCCCC2)CC1 | 1.5 | -12.9 | -0.2 | 2.5 | 10.1 | 12.0
20 | O=C(CSCc1ccc(Cl)cc1)NCc1ccc2c(c1)OCO2 | 9.6 | -6.7 | -0.9 | -0.6 | -10.8 | -21.2
21 | CC(=O)NCCn1c(SCC(=O)c2ccccc2)nc2ccccc2c1=O | -7.0 | -12.9 | 0.1 | -1.8 | 3.8 | -6.5
22 | CCOC(=O)c1c(-c2ccccc2)csc1NC(=O)CSc1nnnn1C | 4.4 | -19.8 | 0.9 | -6.7 | 5.9 | 25.5
23 | COc1cc(CC(=O)OC2CCOC2=O)cc(OC)c1OC (configuration not stated) | -0.8 | -1.9 | -0.1 | 0.2 | 2.2 | -3.6
24 | Clc1ccc(-n2nnnc2SCc2c(-c3ccccc3)nc3sccn23)cc1 | -1.9 | -2.8 | 1.0 | 7.4 | 32.1 | 7.0
25 | CCOC(=O)C(Sc1cc(-c2ccccc2)nc2ncnn12)C(C)=O (configuration not stated) | -7.3 | -10.9 | 6.5 | -9.4 | -1.7 | ?
26 | C=CCn1c(=O)/c(=C/c2ccc(C)o2)s/c1=C(/C#N)C(=O)c1ccccc1 | -8.0 | -3.6 | 29.8 | -4.1 | -3.9 | 5.7
27 | Cc1cc(C)n(-c2ccc(C(=O)NCc3ccc4c(c3)OCO4)cc2)n1 | -0.3 | -15.1 | -0.2 | -1.8 | 0.5 | 9.6
28 | COc1ccc(CNC(=O)c2cnc3n(c2=O)CCS3)cc1 | 3.3 | -3.0 | -0.4 | -8.2 | 7.2 | -5.5
29 | O=C(O)c1ccc(N2CCCC2=O)cc1 | 5.2 | -12.2 | 0.1 | 6.4 | 5.7 | 8.0
30 | O=S(=O)(Nc1cccc(-c2cn3c(n2)SCC3)c1)c1cccs1 | / | -10.4 | 0.3 | 24.6 | 18.9 | 2.5

Only Six1-Eya2 blk and TRPML1 inh, for 2 of the compounds above:
entry | compound | Six1-Eya2 blk | TRPML1 inh
10 | COc1ccccc1-n1c(C)cc(SC)c(C(C)=O)c1=S | 5.1 | 5.2
11 | COc1ccc(CN(C)C(=O)c2cc(-c3ccc(C)cc3C)nc3ccccc23)c(OC)c1OC | -0.2 | 17.3

Single records (already shown). Order of screens: CtBP-E1A inh | D2 PAM | TRPML1 agonist | Six1-Eya2 blk | TRPML1 inh | TRPV1 PAM
Listed for C=CCn1c(=O)/c(=C/c2ccc(C)o2)s/c1=C(/C#N)C(=O)c1ccccc1 = -8.0 | -3.6 | 29.8 | -4.1 | -3.9 | 5.7
Listed for CCOC(=O)c1c(-c2ccccc2)csc1NC(=O)CSc1nnnn1C = 4.4 | -19.8 | 0.9 | -6.7 | 5.9 | 25.5
Listed for O=C(Nc1ccc(S(=O)(=O)Nc2ncccn2)cc1)c1cccc([N+](=O)[O-])c1 = 5.3 | -8.9 | 0.1 | 7.1 | -2.9 | /
Listed for CCOC(=O)C(Sc1cc(-c2ccccc2)nc2ncnn12)C(C)=O (configuration not stated) = -7.3 | -10.9 | 6.5 | -9.4 | -1.7 | ?
Listed for COC(=O)[C@]1(C)N[C@H](CN(C)C(=O)c2ccccc2)[C@@H]2C(=O)N(C)C(=O)[C@@H]21 = -17.0 | -3.3 | -0.3 | 2.8 | 8.0 | /

Down the list, quoted from above.
D2 PAM for nos. 10 to 18, in order: -11.6, 16.5, -7.8, -8.9, -9.3, -12.0, -4.7, -23.1, -0.3

(listing goes on)
item | molecule | CtBP-E1A inh | D2 PAM | TRPML1 agonist | Six1-Eya2 blk | TRPML1 inh | TRPV1 PAM
31 | COc1cc(OC)c(NC(=O)c2c(-c3ccccc3)noc2C)cc1Cl | 1.0 | -1.9 | -0.6 | -2.0 | -28.0 | 6.0
32 | CCN1CCN(C(=S)c2ccc(Br)cc2)CC1 | 0.7 | -21.3 | 0.0 | -1.8 | -1.9 | -11.8
33 | COc1ccc(N(C)C(=O)CN(C)S(=O)(=O)c2ccc3c(c2)c(=O)n(C)c(=O)n3C)c(OC)c1 | / | 1.1 | 0.0 | 2.6 | -14.4 | 2.5
34 | Cn1cnnc1Sc1ccc(C(=O)OCC(=O)NC2CC2)cc1[N+](=O)[O-] | 2.8 | 5.0 | 1.2 | 3.7 | 2.1 | -0.2
35 | CC(C(Sc1ccccc1N)c1ccccc1)[N+](=O)[O-] (configuration not stated) | -3.5 | -17.9 | 0.5 | -16.2 | 8.7 | 2.6
36 | COC(=O)[C@]1(C)N[C@H](CN(C)S(=O)(=O)c2ccc(C)cc2)[C@@H]2C(=O)N(Cc3ccccc3)C(=O)[C@@H]21 | 1.9 | / | -0.6 | 3.7 | -3.0 | /
37 | Cc1ccc([N+](=O)[O-])c(OCC(=O)OCC(=O)c2ccccc2)c1 | 5.5 | -11.2 | -1.4 | -1.0 | -5.5 | 5.9
38 | Cc1cccc(NC(=O)CNC(=O)[C@H]2O[C@@H](n3cnc4c(N)ncnc43)[C@H](O)[C@@H]2O)c1C | 4.4 | -4.3 | -0.2 | 4.9 | 24.0 | /
39 | COc1cc(Cl)ccc1OCc1cc(C(=O)N2CCC(N(C)C)C2)no1 (configuration not stated) | -2.9 | -18.7 | -0.1 | -1.2 | 4.3 | 11.5
40 | CC(=O)OCCNc1cc(SC(C)C)c2nonc2c1[N+](=O)[O-] | -2.3 | -2.2 | 0.4 | -1.9 | -5.1 | 4.0
41 | CCN(CC)CCNC(=O)c1ccc(NC(=O)c2cc(-c3ccncc3)nc3ccccc23)cc1 | -1.7 | -2.2 | 1.2 | 1.6 | 7.7 | 7.2
42 | Cc1cccc(Nc2ccc3nonc3c2[N+](=O)[O-])c1C | 7.0 | 0.9 | -0.8 | -2.4 | 8.3 | -5.8
43 | S=c1[nH]nc(-c2ccccc2Br)n1Cc1ccccc1 | / | -5.4 | -1.5 | 6.3 | 17.8 | -7.3
44 | O=S(=O)(c1ccc(F)cc1)n1cnc2ccccc21 | -5.0 | -2.6 | 0.6 | 7.3 | 4.9 | -13.1
45 | Cc1cc(F)cc(-c2cc(C(=O)NCc3ccco3)[nH]n2)c1 | -22.7 | -7.1 | -1.0 | 6.1 | / | /
46 | CCOC(=O)C(=O)CC(=O)c1ccc2c(c1)OCCO2 | / | -6.0 | 0.2 | 0.1 | ? | 4.2
47 | CCOC(=O)c1c(C)noc1CP(=O)(c1ccccc1)c1ccccc1 | 3.9 | 3.6 | 0.7 | 6.3 | 9.0 | -13.8
48 | Cc1ccc2cc(CCNC(=O)c3ccc4c(c3)OCO4)c(=O)[nH]c2c1 | -1.9 | -5.6 | -0.8 | -7.3 | -11.1 | 20.2
49 | COc1cc(OC)nc(Oc2ccccc2C(=O)Oc2ccc(C)cc2)n1 | 26.2 | -3.0 | 2.3 | 10.2 | -4.7 | -2.0
50 | Cc1nn(-c2ccccc2)c2sc(C(=O)OCn3nnc4ccccc4c3=O)cc12 | -22.9 | -3.0 | 0.7 | 5.1 | -3.7 | -6.3
51 | COc1cc2sc(C)nc2c2sccc12 | 4.5 | -11.4 | -0.3 | 0.5 | -15.9 | -11.2
52 | COC(=O)c1ccc(COC(=O)CNC(=O)c2ccc(OC)cc2)cc1 | / | 6.3 | -1.2 | -3.3 | -0.1 | /
53 | COc1cccc(C(=O)N2CCN(Cc3ccccc3C(F)(F)F)CC2)c1 | -4.5 | 19.8 | 0.2 | 7.5 | -5.8 | -1.4
54 | CC(=O)N1c2ccc(S(=O)(=O)N(C)CC(=O)Nc3cccc(C)c3)cc2CC1C (configuration not stated) | 6.3 | -9.8 | -1.4 | -0.3 | 29.6 | -3.7
55 | O=C(COC(=O)c1ccc(S(=O)(=O)C(F)F)cc1)NC(=O)NC1CCCCC1 | 2.5 | 0.0 | 0.0 | -1.1 | 4.1 | 2.2
